Rac1 GTP hydrolysis: MgcRacGAP GTPase-activating activity inhibitors, confirmation, biochemical, ADP Hunter fluorescence. MgcRacGAP-stimulated Rac1 GTP hydrolysis, ADP Hunter fluorescence; higher % means a stronger effect; GST-tagged Rac1 F28L mutant substrate. actives 0.6% (n = 340,000). inhibition, % at 30 µM; hits with a dose series show IC50 in µM. AID 624330, 2012;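 active means first-screen hits whose inhibition reached a set limit at any dose in the follow-up dose series; inconclusive means inhibition above the set first-screen limit but never retested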;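 further: fluorescence reports GDP produced by GAP-driven GTP hydrolysis; strong numbers were not always called active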
UTI89 phage lysis: inhibition of K1F phage lysis, E. coli UTI89, bacterial capsule biogenesis inhibitors, alamar blue (AID 488966); E. coli UTI89 K1F phage lysis, alamar blue, 2 h; higher % means a stronger effect; one-dose inhibition, % at 100 µM; IC50 in µM for titrated hits; actives 0.02% (n = 340,000);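 active means phage lysis inhibition, versus mean bacterial control, above a set limit; inconclusive means no clear call, values can overlap the other calls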;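 further: capsule biogenesis inhibitors block K1F phage lysis so surviving cells raise fluorescence; higher fluorescence means more inhibition of phage lysis; actives were called in the ten point dose series up to 300 µM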
NTR1 ag: agonists of NTR1, primary screen, imaging, U2OS cells, beta-arrestin-GFP, high content (AID 493036) | Neurotensin receptor type 1 (Homo sapiens), P30989 | NTR1-U2OS beta-arrestin-GFP spot imaging, agonist mode | activation, % at 20 µM | actives 0.17% (n = 330,000);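 active means activation at or above 40% of the spot to cytoplasm intensity ratio, with at least 20 cells analyzed; inconclusive means wells under 20 cells, flagged as cytotoxic or low count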;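 further: 0% = DMSO without peptide and 100% = 100 nM NTR1 peptide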
Target sequence (P30989 whole entry, looked up): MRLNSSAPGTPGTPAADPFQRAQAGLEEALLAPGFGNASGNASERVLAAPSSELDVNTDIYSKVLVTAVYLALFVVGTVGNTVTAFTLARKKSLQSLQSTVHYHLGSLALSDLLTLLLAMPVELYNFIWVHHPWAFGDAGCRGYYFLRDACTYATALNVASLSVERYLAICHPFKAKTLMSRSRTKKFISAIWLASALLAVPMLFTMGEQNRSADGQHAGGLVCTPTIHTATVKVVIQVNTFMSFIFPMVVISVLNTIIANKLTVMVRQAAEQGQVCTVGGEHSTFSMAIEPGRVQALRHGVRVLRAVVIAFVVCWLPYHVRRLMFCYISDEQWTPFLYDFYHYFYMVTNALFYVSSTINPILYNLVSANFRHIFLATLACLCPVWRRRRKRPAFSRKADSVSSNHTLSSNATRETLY
GPR55 antagonists: GPR55 antagonists blocking LPI-driven arrestin recruitment, primary screen, imaging, U2OS, beta-arrestin-GFP, LPI agonist (AID 2013). actives 0.13% (n = 290,000). U2OS GPR55 beta-arrestin-GFP translocation imaging, LPI antagonism; higher % means a stronger effect. G-protein coupled receptor 55 (Homo sapiens). inhibition, % at 10 µM; hits with a dose series show IC50 in µM;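 active means spots per cell inhibited over 60%, with over 100 cells counted and total cytoplasm intensity under 500,000; inconclusive means wells with under 100 cells, flagged as likely toxic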;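 further: U2OS cells stably carrying GPR55 and arrestin-GFP stimulated by 5 µM LPI near EC80; imaged beta-arrestin-GFP aggregate spots per cell after agonist stimulation; plate controls were LPI-stimulated DMSO wells for no effect and DMSO wells without LPI for full effect; some results filed as inactive read as strong as hits; confirmed hits need IC50 under 10 µM and bright autofluorescent wells are also inconclusive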
KOR beta-arrestin-1: KOR antagonists, beta-arrestin recruitment, cell-based, luminescence, uHTS (AID 1778); one-dose inhibition, % at 10 µM; IC50 in µM for titrated hits; actives 0.091% (n = 290,000); KOR beta-arrestin recruitment, luminescence, antagonist mode; higher % means a stronger effect; in the data active means inhibition above about 50%; further: strong numbers were not always called active
GPR55 activation: GPR55 agonists via beta-arrestin recruitment, primary screen, imaging, U2OS cells, beta-arrestin-GFP redistribution (AID 1961). one-dose activation, % at 10 µM; EC50 in µM for titrated hits. U2OS GPR55 beta-arrestin-GFP redistribution imaging; higher % means a stronger effect. G-protein coupled receptor 55 (Homo sapiens). actives 0.048% (n = 290,000);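 active means activation above 40% with more than 50 cells counted in the well; inconclusive means wells holding fewer than 50 cells, flagged as toxic or sparse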;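 further: U2OS osteosarcoma cells stably expressing GPR55 and beta-arrestin-GFP; plate controls were DMSO negative control for no effect and LPI positive control for full effect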
GPR35 antagonists: GPR35 antagonists blocking zaprinast-driven arrestin recruitment, primary screen, imaging, U2OS, beta-arrestin-GFP, zaprinast agonist (AID 2058) | G-protein coupled receptor 35 (Homo sapiens) | U2OS GPR35 beta-arrestin-GFP translocation imaging, zaprinast antagonism; higher % means a stronger effect | inhibition, % at 10 µM, or IC50 in µM where a hit was titrated | actives 0.052% (n = 290,000);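 active means inhibition of at least 50% with at least 30 cells and total cytoplasm GFP at most 10,000,000; inconclusive means under 30 cells or total GFP of 10,000,000 plus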
KOR beta-arrestin-2: KOR agonists, beta-arrestin recruitment, primary screen, cell-based, luminescence, uHTS (AID 1777) | Kappa-type opioid receptor (Homo sapiens) | one-dose activation, % at 10 µM; EC50 in µM for titrated hits | KOR beta-arrestin recruitment, luminescence; higher % means a stronger effect | actives 0.02% (n = 280,000); in the data active means activation above about 50%, passing the limit was not always enough; further: a part of the inactive calls stands beside numbers as strong as those of hits
NTR1 ag cell count 20 µM: second read-out of NTR1 ag, no call of its own (marks repeat the call); cell count; measured here: cell count, cytotoxicity flag
Starred values were filed as active, the others as inactive; ? = inconclusive; nt = not tested or not shown; [ ] = remark or other dose. These rows are one share of the data, so the mix of outcomes need not match the whole.

compound,Rac1 GTP hydrolysis,UTI89 phage lysis,NTR1 ag,NTR1 ag cell count 20 µM,GPR55 antagonists,KOR beta-arrestin-1,GPR55 activation,GPR35 antagonists,KOR beta-arrestin-2
O=C(Nc1nnc(SCc2c(Cl)cccc2Cl)s1)c1cccc([N+](=O)[O-])c1,8.2%,0.2%,7.2,68,7.9%,-48.2%,0.4%,-6.0%,5.7%
CCS(=O)(=O)c1ncc(Cl)c(C(=O)Nc2ccc(C)cc2)n1,5.5%,0.2%,1.0,52,-9.6%,-15.0%,-0.1%,20.3%,-1.8%
Cc1ccc(-n2c(CCC(=O)O)ccc2-c2cccs2)cc1C,16.9%,-0.2%,0.0,51,-8.6%,-32.5%,-0.1%,8.4%,-3.5%
COc1ccc(-c2csc3ncnc(NCCO)c23)cc1,5.1%,0.2%,-0.8,60,-2.4%,-14.3%[20 µM],0.5%,1.0%,-3.6%
Cn1nccc1C(=O)NC1CCCc2c1cnn2-c1ccc(C(C)(C)C)cc1 (configuration not stated),2.1%,-0.8%[50 µM],4.5,77,-2.0%,4.7%,-0.1%,-14.6%,-4.1%
O=S(=O)(Nc1nc2ccccc2nc1Nc1ccc(N2CCOCC2)cc1)c1cc(Cl)ccc1Cl,18.9%,0.0%,6.0,76,-10.8%,-335.3%,3.6%,-26.5%,11.8%
CC1=CC(C)(C)Nc2ccc(OC(=O)CN3C(=O)C4CCCCC4C3=O)cc21 (configuration not stated),12.2%,2.7%,2.3,82,7.7%,10.9%,-0.1%,2.7%,-0.4%
COc1ccc2ncn(-c3ccccc3)c2c1,9.9%,0.7%,-0.5,85,-2.4%,11.6%,0.7%,7.9%,3.2%
CC1(C)CC(=O)C2=C(C1)N(Cc1ccccc1)C(=O)C2(O)C(F)(F)F (configuration not stated),6.7%,0.5%,0.5,41,11.8%,-30.7%,0.0%,-8.1%,2.6%
O=c1cc(CSc2nnc(-c3cccs3)n2Cc2ccccc2)nc2sc3ccccc3n12,8.2%,0.3%,2.9,97,-0.2%,-25.1%,-0.1%,-8.9%,1.6%
COc1cc(OC)cc(-c2nnc(NC(=O)c3ccc4c(c3)OCCO4)o2)c1,9.6%,0.8%,1.1,62,7.5%,13.3µM*,-0.3%,0.6%,-0.9%
Cc1cc(C)c(C#N)c(SCC(=O)c2ccc(Cl)cc2Cl)n1,6.2%,2.2%,39.0,64,38.2%,6.1%,0.3%,3.1%,-4.8%
COc1cccc(C(=O)Oc2c(Br)cc(Br)cc2/C=N/NC(=O)c2cc(C)[nH]n2)c1,9.2%,-0.1%,0.2,32,3.4%,-17.5%,0.8%,9.1%,-1.7%
Cc1cc(N2CCOCC2)c2c(N)c(Br)cc(C)c2n1,17.0%,-0.1%,2.9,43,9.2%,-115.0%,0.0%,15.8%,2.2%
CCn1c(COc2ccc(OC)cc2)nc2ccccc21,10.0%,0.2%,-2.4,84,-8.7%,-0.5%,-0.1%,-5.5%,0.7%
COc1cccc(C2NC(c3cccc(OC)c3O)C(C)C(=O)C2C)c1O (configuration not stated),3.2%,-1.0%,2.2,51,6.2%,-6.2%,-0.1%,5.8%,0.6%
CC(C)(C)OC(=O)NCCc1nnc(S(=O)(=O)Cc2ccc(Cl)cc2Cl)o1,-5.6%,-0.2%,4.2,43,0.8%,6.9%,0.4%,-3.7%,-6.2%
Cc1cccc(CS(=O)(=O)c2ncc(Cl)c(C(=O)Nc3c(C)cccc3C)n2)c1,-3.1%,0.4%,7.0,67,0.2%,22.4%,0.6%,7.4%,-3.6%
COc1ccc(CCNc2ncnc3cc(OC)c(OC)cc23)cc1OC,5.4%,-0.6%,nt,nt,-0.6%,-84.8%[20 µM],0.2%,-10.3%,1.4%
CC(=O)c1cn(CCOc2cc(C)ccc2C)c2ccccc12,0.2%,0.0%,5.3,43,-16.8%,-28.0%[20 µM],-0.2%,1.3%,0.4%
COC(=O)c1ccccc1Oc1c(F)c(F)nc(N2CCOCC2)c1F,9.6%,-0.2%,0.2,45,-10.9%,-30.9%,-0.1%,18.5%,7.1%
O=C(Nc1nc2ccccc2n1CCOc1ccc(Cl)cc1)c1ccco1,7.4%,0.1%,6.6,53,8.7%,13.5%,0.3%,-17.3%,-2.3%
COc1ccc2cc(C(N)=O)c(=Nc3ccc(C)cc3)oc2c1,2.7%,1.1%,3.9,41,-3.0%,-35.3%,0.7%,2.9%,4.5%
O=c1c2ccccc2nc(/C=C/c2ccc([N+](=O)[O-])o2)n1CCCO,1.0%,-3.4%,-0.2,77,-2.3%,-29.0%,-0.1%,6.3%,18.6%
CCc1ccc(N(CC)c2ncnc3nc[nH]c23)cc1,12.2%,-1.7%,-1.2,95,2.8%,-23.0%,0.5%,-2.2%,2.5%

The list goes on, starting with the last four of the part before.
compound,Rac1 GTP hydrolysis,UTI89 phage lysis,NTR1 ag,NTR1 ag cell count 20 µM,GPR55 antagonists,KOR beta-arrestin-1,GPR55 activation,GPR35 antagonists,KOR beta-arrestin-2
O=C(Nc1nc2ccccc2n1CCOc1ccc(Cl)cc1)c1ccco1,7.4%,0.1%,6.6,53,8.7%,13.5%,0.3%,-17.3%,-2.3%
COc1ccc2cc(C(N)=O)c(=Nc3ccc(C)cc3)oc2c1,2.7%,1.1%,3.9,41,-3.0%,-35.3%,0.7%,2.9%,4.5%
O=c1c2ccccc2nc(/C=C/c2ccc([N+](=O)[O-])o2)n1CCCO,1.0%,-3.4%,-0.2,77,-2.3%,-29.0%,-0.1%,6.3%,18.6%
CCc1ccc(N(CC)c2ncnc3nc[nH]c23)cc1,12.2%,-1.7%,-1.2,95,2.8%,-23.0%,0.5%,-2.2%,2.5%
Cc1ccc(NC(=O)c2cc(Cl)nc3ccccc23)cc1,12.6%,0.6%,-6.9,84,-3.8%,-7.3%,-0.1%,4.0%,-1.7%
Cc1cc(C)nc(NC(=O)CCCC(=O)O)c1,10.8%,0.2%,-1.1,36,12.0%,14.9%,0.2%,-2.7%,5.6%
O=C(N/N=C\c1c(O)ccc2ccccc12)c1ccc(O)cc1,19.9%,-0.1%,7.8,54,-4.5%,-90.0%[20 µM],-0.3%,3.4%,4.8%
COc1ccccc1CN(Cc1nc2ccccc2c(=O)[nH]1)S(=O)(=O)c1ccc2ccccc2c1,6.0%,2.7%,10.5,52,-3.8%,5.1%,0.0%,-15.2%,-0.1%
Cc1ccccc1NC(=O)Cn1cnc2c1c(=O)n(C)c(=O)n2C,6.8%,0.3%,0.4,85,-9.9%,nt,0.0%,2.7%,nt
O=[N+]([O-])c1ccc(NC(=S)NCCc2ccc(Cl)cc2)cc1,5.3%,-0.6%,24.1,38,8.0%,32.8%,0.1%,3.7%,0.0%
CS(=O)(=O)c1ccc(C(=O)OCc2nnc(-c3ccccc3)o2)cc1[N+](=O)[O-],-2.3%,-0.1%,nt,nt,17.3%,24.4%,8.8%,9.1%,-3.0%
Cc1cc(NC(=O)c2c([N+](=O)[O-])cnn2C)no1,2.2%,-10.4%,2.1,51,4.3%,4.1%,-0.1%,27.7%,10.9%
O=C(CCl)N(Cc1cc(=O)[nH]c2ccccc12)c1ccccc1,12.5%,-0.4%[50 µM],3.2,99,11.2%,43.0%,0.0%,12.3%,-0.8%
O=[N+]([O-])c1cccc(NC(=S)Nc2nc(-c3ccc(Cl)cc3Cl)cs2)c1,nt,nt,nt,nt,-10.3%,-11.8%,-0.1%,-3.6%,-2.8%
Cc1nn(-c2cccc(Cl)c2)c2nc(C(F)(F)F)[nH]c(=O)c12,9.1%,1.0%,2.6,58,-1.3%,-19.4%,?,11.0%,-2.7%
Cn1c2c(c(=O)n(C)c1=O)C(C(F)(F)F)(C(F)(F)F)N=C(c1ccc(Cl)cc1)N2,3.5%,8.8%,2.2,55,-0.8%,-25.2%,-0.1%,1.1%,-2.2%
COc1ccccc1C(=O)Nc1nc2ccccc2[nH]1,4.3%,-0.7%,-2.0,66,7.5%,3.0%,0.2%,-4.3%,-3.0%
CC(=O)NC(c1ccc(C)cc1)c1cc(Cl)c2cccnc2c1O (configuration not stated),19.1%,0.4%,1.8,63,-20.4%,12.3%[20 µM],0.3%,5.2%,-3.2%
CC(/C=C/c1ccccc1)=N/NC(=O)c1cc([N+](=O)[O-])cc([N+](=O)[O-])c1,-0.6%,1.6%,nt,nt,11.1%,7.7%,0.2%,13.2%,-5.2%
O=C(NCC1CCN(Cc2ccc(Cl)cc2)CC1)C1CCCN(c2ncnc3c2nc2n3CCCCC2)C1 (configuration not stated),8.7%,0.3%,6.4,53,12.9%,-3.5%,0.6%,-7.3%,-0.6%
CN(c1ccccc1)S(=O)(=O)c1cccc(NC(=O)c2cc(=O)c3ccccc3o2)c1,3.0%,0.0%,11.7,59,9.5%,-11.6%,-0.3%,-13.4%,0.5%
CCCCCOc1ccc(NC(=O)C(=O)NCCC2=CCCCC2)cc1,2.5%,-0.2%,0.4,34,7.1%,-41.2%,0.0%,12.4%,2.9%
COc1ccc(CCNc2ncnc3sc(C)cc23)cc1OC,12.1%,0.9%,1.0,64,8.4%,-7.1%[20 µM],-0.1%,-4.6%,3.8%
Cc1cc2c(NCc3ccccc3)ncnc2s1,12.8%,0.4%,0.1,51,-4.9%,8.1%[20 µM],-0.1%,-4.4%,-7.1%
